OX1R antag-1: human HCRTR1 antagonism. AID 434989. inhibition, % at 5 µM. CHO/OX1R cells, Fluo-8 calcium fluorescence, orexin A. 0.43% of 330,000 active;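 active = inhibition above its plate's threshold, mean inhibition of all tested compounds on the plate plus 3 SD, cut at about 37% in these data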;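 note: 0% = orexin A challenge wells and 100% = SB-334867-A antagonist wells; not every result past the cut was called active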
Target sequence (O43613 whole entry, looked up): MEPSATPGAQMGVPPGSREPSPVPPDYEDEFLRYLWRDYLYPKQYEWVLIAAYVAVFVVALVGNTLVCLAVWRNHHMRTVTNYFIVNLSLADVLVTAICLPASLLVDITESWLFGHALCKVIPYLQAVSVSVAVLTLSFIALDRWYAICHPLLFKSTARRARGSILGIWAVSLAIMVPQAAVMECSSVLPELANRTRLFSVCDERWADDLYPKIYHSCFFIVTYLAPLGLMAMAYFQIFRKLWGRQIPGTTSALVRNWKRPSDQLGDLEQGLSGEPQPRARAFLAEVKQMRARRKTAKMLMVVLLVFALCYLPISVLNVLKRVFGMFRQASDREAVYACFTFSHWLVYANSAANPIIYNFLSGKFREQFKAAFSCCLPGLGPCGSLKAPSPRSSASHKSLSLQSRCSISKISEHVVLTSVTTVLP
OX1R antag-2: OX1R (human) antagonism; 1.8% of 330,000 active; AID 485270; OX1R-expressing cells, FRET antagonist read-out; inhibition, % at 6.6 µM; O43613; in the data active = inhibition mostly above about 38%, no sharp cut-off; inactive = mostly below about 40%;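 note: 0% = agonist challenge alone and 100% = reference antagonist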
* hit, by the source's call; & = joins results of further samples.

Sample of the layout (4 entries):
Compound	OX1R antag-1	OX1R antag-2
Cc1oc(-c2ccccc2F)nc1CS(=O)CC(=O)N1CCC2(CC1)OCCO2 (centres undefined)	-23	17
CC(C)N1CCN(Cc2ccc3c(c2)OCCO3)CC1CCO (centres undefined)	-11	15
Cc1cc(OCC(=O)N[C@@H](Cc2ccccc2)C(=O)O)c2c3c(c(=O)oc2c1)CCC3	1	13
Nc1c(Cl)cc([N+](=O)[O-])cc1Cl	-9	28

Results, previewed entries included:
Compound	OX1R antag-1	OX1R antag-2
Cc1oc(-c2ccccc2F)nc1CS(=O)CC(=O)N1CCC2(CC1)OCCO2 (centres undefined)	-23	17
CC(C)N1CCN(Cc2ccc3c(c2)OCCO3)CC1CCO (centres undefined)	-11	15
Cc1cc(OCC(=O)N[C@@H](Cc2ccccc2)C(=O)O)c2c3c(c(=O)oc2c1)CCC3	1	13
Nc1c(Cl)cc([N+](=O)[O-])cc1Cl	-9	28
S=C(c1ccc(Cl)cc1)N1CCOCC1	-12	13
C/C=C(\C)C(=O)N[C@@H](c1ccccc1)[C@@H](O)C(=O)O[C@H]1C[C@@]2(O)[C@@H](OC(=O)c3ccccc3)C3[C@](C)(C(=O)[C@H](O)C(=C1C)C2(C)C)[C@@H](O)C[C@H]1OC[C@@]31OC(C)=O (some centres undefined)	-14	1
Cc1cccc(OP(=O)(Nc2ccc(F)cc2)Oc2cccc(C)c2)c1	5	22
Cc1cc(/C=C2/C(=O)NC(=O)N(C)C2=O)c(C)n1-c1ccccc1	-13	23
COc1ccc(NC(=O)N2CCC3(CC2)OCCO3)c(OC)c1	5	1
C#CCN1CCN(c2ccc(F)cc2)CC1	-15	22
CN(C)P(=O)(C(Cl)=C(N1CCCCC1)N1CCCCC1)N(C)C	-7	20
O=c1[nH]c2ccccc2c(=O)n1-c1cccc(Cl)c1	1	10

Following part:
Compound	OX1R antag-1	OX1R antag-2
O=C(CCN1CCOCC1)NCC(=O)Nc1ccc(Br)cc1C(=O)c1ccccc1	-31	24
c1ccc(C2OCCN3CCCCC23)cc1 (centres undefined)	-2	32
O=c1cccc2n1CC1CC2CN(Cc2c(F)cccc2Cl)C1 (centres undefined)	-10	6
CC1=Nc2ccccc2/C1=C/c1c(O)[nH]c(=O)[nH]c1=O	5	5
Cc1ccc(NC(=O)c2ccc(C)c(S(=O)(=O)N3CCCCC3)c2)nc1	-25	10
CC(=NCC1CCCO1)c1c(O)n(-c2ccc(C)cc2)c(=O)[nH]c1=O (centres undefined)	-8	10
O=P(C(c1ccc2c(c1)OCO2)N1CCOCC1)(N1CCOCC1)N1CCOCC1 (centres undefined)	0	5
N=c1sc2c(n1Cc1ccccc1)CCCC2	-5	18
CC(=NCCO)c1c(O)n(C)c(=O)n(C)c1=O	1	2
O=c1c(/C=N/N2CCOCC2)c(O)n(-c2ccccc2)c(=S)n1-c1ccccc1	-11	2
CCC12C=CCN3CCC4(c5cc(Br)c(OC)cc5N(C)C4C(O)(C(=O)OC)C1OC(C)=O)C32 (centres undefined)	-42	8
NC(Cc1ccccc1)c1nc2ccccc2[nH]1 (centres undefined)	5	-2

The list goes on:
Compound	OX1R antag-1	OX1R antag-2
FC(F)(F)c1ccc(CNCCc2ccc3c(c2)OCO3)cc1	-28	-4
CN1C(=O)C(C2c3ccccc3C(=O)N2Cc2ccccc2)C(=O)N(C)C1=O (centres undefined)	-9	27
c1ccc2c(CCNC3=NCCC3)c[nH]c2c1	-9	-2
O=C(Cn1cc(C(=O)c2ccccc2F)c2ccccc21)NCc1ccco1	-5	18
CN(C)C(=O)OCc1n(C)cc[n+]1C	16	10
C=CCn1c(O)c(C(C)=Nc2ccc(N(CC)CC)cc2)c(=O)[nH]c1=O	-7	24
O=C(NC1(C(F)(F)F)Oc2ccc(Cl)cc2O1)N1CCC2(CC1)OCCO2 (centres undefined)	-5	1
CC(=O)OC1(c2ccccc2)CCN(C)CC1(C)C (centres undefined)	-12	2
O=C(Nc1ccccc1)N1CC2CC(C1)c1cccc(=O)n1C2 (centres undefined)	-2	2
O=C(CNC(=O)OCc1ccccc1)NCC(=O)Nc1ccc(Br)cc1C(=O)c1ccccc1	-31	6
CC(=NCCCN1CCCCC1)c1c(O)n(Cc2ccccc2)c(=O)[nH]c1=O	-28	21
Cc1ccc(N2C(=O)NC(=O)/C(=C\c3cccn3C(C)(C)C)C2=O)cc1	9	7

The closing six compounds of the part before come first, to join the parts.
Compound	OX1R antag-1	OX1R antag-2
O=C(NC1(C(F)(F)F)Oc2ccc(Cl)cc2O1)N1CCC2(CC1)OCCO2 (centres undefined)	-5	1
CC(=O)OC1(c2ccccc2)CCN(C)CC1(C)C (centres undefined)	-12	2
O=C(Nc1ccccc1)N1CC2CC(C1)c1cccc(=O)n1C2 (centres undefined)	-2	2
O=C(CNC(=O)OCc1ccccc1)NCC(=O)Nc1ccc(Br)cc1C(=O)c1ccccc1	-31	6
CC(=NCCCN1CCCCC1)c1c(O)n(Cc2ccccc2)c(=O)[nH]c1=O	-28	21
Cc1ccc(N2C(=O)NC(=O)/C(=C\c3cccn3C(C)(C)C)C2=O)cc1	9	7
CCCCn1c(C)c(C(=O)OCC)c2c(CN3CCOCC3)c(O)ccc21	-22	6
Cc1cc(OCC(=O)NCC(O)c2ccccc2)c2c3c(c(=O)oc2c1)CCC3 (centres undefined)	-11	-8
Nc1ccc(CCN2CCN(c3cccc(C(F)(F)F)c3)CC2)cc1	-36	14
O=C(CN1CCCCC1)c1cccc(Br)c1	4	22
CC1=CC(=C2C(=O)NC(=S)NC2=O)C=C(C(F)(F)F)N1Cc1ccccc1	-16	12
CC(C)NS(=O)(=O)c1ccc(OCC(=O)N2CCN(Cc3ccccc3)CC2)c(Cl)c1	-36	25
CCOP(=O)(OCC)c1cc(CC)ccc1O	-8	3
c1cncc(CNC2=NCCC2)c1	-12	20
Cc1cc(=O)oc2c(C)c(OCC(=O)N3CCC(C(=O)O)(c4ccccc4)CC3)ccc12	-14	18
CNc1cc(N2CCN(C)CC2)ccc1[N+](=O)[O-]	-2	29
c1ccc(NC2=NCCS2)cc1	4	13
O=c1c2ccccc2nc(-c2ccc(-c3ccccc3)cc2)n1-c1ccncc1	-18	13

Next section.
Compound	OX1R antag-1	OX1R antag-2
O=C(COc1ccccc1)N1CCN(CC2CC3C=CC2C3)CC1 (centres undefined)	-20	20
OC1(c2ccccc2)CCNC2CCCCC21 (centres undefined)	2	20
O=C1CC(N2CCC(n3c(=O)[nH]c4ccccc43)CC2)C(=O)N1c1ccc(F)cc1 (centres undefined)	-11	5
Cc1ccc(N2C(=O)NC(=O)C(CCc3ccccn3)(Cc3ccc(F)cc3)C2=O)cc1 (centres undefined)	-39	11
C[C@]12C=CC(=O)C=C1C=C[C@@H]1C2CC[C@]2(C)C(=O)CCC12 (some centres undefined)	-9	-6
Cc1ccc2c(c1)C1CN(C)CCC1N2C(=O)c1cccs1 (centres undefined)	-19	13
C=CCn1c(O)c(/C(C)=N/NC(=S)Nc2ccccc2)c(=O)[nH]c1=O	-14	8
CNC(=O)Nc1ccc(C(=O)N/N=C\C23CC[C@@H](O)CC2(O)CC[C@@H]2[C@@H]3CCC3(C)C(C4=CC(=O)OC4)CCC23O)cc1 (some centres undefined)	5	6
O=C(Cn1cnc2sc3c(c2c1=O)CCCC3)NCCC(=O)N1CCC2(CC1)OCCO2	-31	13
COC(=O)C(O)(c1ccc(NC(=O)c2ccccc2)cc1)C(F)(F)F (centres undefined)	-14	13
CCCC(=O)Nc1cc(C(=O)N2CCC3(CC2)OCCO3)ccc1S(=O)(=O)c1ccc(C)cc1	-20	18
CCCCCn1c(=O)c(C(=O)NCc2ccco2)c(O)c2ccccc21	-19	2

Rewritten with two lines to a compound: part of the list above.
Each structure is followed by: OX1R antag-1 | OX1R antag-2
O=C(COc1ccccc1)N1CCN(CC2CC3C=CC2C3)CC1 (centres undefined)
    -20 | 20
OC1(c2ccccc2)CCNC2CCCCC21 (centres undefined)
    2 | 20

Next part:
Compound	OX1R antag-1	OX1R antag-2
O=C1OCCC1NC1=NCCC1 (centres undefined)	-10	21
CCOP(=O)(C#CC(C)(C)C)C1(O)CCCCC1 (centres undefined)	-11	9
O=c1[nH]c(=O)n(CC2CCCO2)c(O)c1/C=C1\C=Nc2ccccc21 (centres undefined)	-9&-15	6&6
COc1cc(N2C(=O)CC(=O)NC2=O)cc(OC)c1OC	-15	1
O=C(N/N=C/C1C(=O)NC(=S)N(c2ccccc2)C1=O)c1cc(Br)c(O)c(Br)c1 (centres undefined)	-24	26
COc1ccccc1N1C(=O)NC(=O)C(CCc2ccncc2)(CCc2ccncc2)C1=O	0	3
CCOC(=O)C1=C(N)OC2=C(C(=O)CCC2)C12C(=O)Nc1ccccc12 (centres undefined)	-8	2
CC(=NCc1ccc2c(c1)OCO2)c1c(O)n(Cc2ccccc2)c(=O)[nH]c1=O	-22	6
NNC(=O)c1ccc(Cl)cc1	-5	20
CC(C)CC(=O)NC(Oc1ccc(Cl)cc1)C(Cl)(Cl)Cl (centres undefined)	32	27
CC(c1ccccc1)n1cncc1C(=O)O (centres undefined)	0	7
CC(CCc1ccccc1)NC(C)C(O)c1ccc(O)cc1 (centres undefined)	-10	15

Going on with the list:
Compound	OX1R antag-1	OX1R antag-2
CCN(CC)CCCN=Cc1c(O)n(CCc2ccc(OC)c(OC)c2)c(=O)[nH]c1=O	-8	7
CN1CCN(CCOC2c3ccccc3CSc3ccc(Cl)cc32)CC1 (centres undefined)	4	14
COC(=O)C1=C(c2cccc(OC)c2OC)C[C@@H]2CC[C@H]1N2C(=O)NCC1CC1	-16	33
CCN(CC)P(=O)(/C=C(\Cl)c1ccccc1)/C=C(\Cl)c1ccccc1	-19	28
N=C1C(c2ccccc2)=C(O)CN1Cc1ccco1	-9	10
C#CC(CC)(CC)NC(=O)Nc1ccc(OCC)cc1	-25	18
CC(=O)c1c(C)n(C2CCCCC2)c2ccc(O)cc12	-21	16
COC1=CCC2([N+](=O)[O-])CN(C)CC1([N+](=O)[O-])C2 (centres undefined)	-6	4
CC(=O)C1C2c3ccccc3OC1(C)N=c1s/c(=C/c3cnn(C)c3)c(=O)n12 (centres undefined)	-34	33
O=C(Cn1c2c(c(-c3ccccc3Cl)cc1=O)CCC2)N1CCC2(CC1)OCCO2	-15	13
CCN1CCN(c2ccc(N)cc2C)CC1	-12	13
Cn1c(O)c(C(=O)c2ccccc2)c(=O)n(C)c1=O	-6	13

(listing goes on)
Compound	OX1R antag-1	OX1R antag-2
C[C@H]1CCC[C@@H](O)CCC/C=C/c2cc(O)cc(O)c2C(=O)O1	11	3
O=C1CC(=O)N(c2cccc(C(F)(F)F)c2)C(=O)N1	-8	11
O=C1NC(c2cc3ccccc3nc2Cl)Nc2ccccc21 (centres undefined)	-12	23
c1cc(CCN2CCCC2)ccn1	-13	10
CC(=O)c1ccc(NC2=NCCCS2)cc1	-10	16
O=c1c2ccccc2[nH]c(=S)n1-c1ccc2c(c1)OCCO2	-4	12
CC1CN(c2ccc([N+](=O)[O-])c(N3CCCCC3)c2)CCN1 (centres undefined)	-27	21
O=c1c2cc(Cl)cc(Cl)c2nc(CN2CCOCC2)n1-c1ccccc1F	-21	12
N=C1SCC(=O)N1Cc1ccccc1	-23	4
COc1cc2[nH]c(=O)n(-c3ccccc3)c(=O)c2cc1OC	7	25
O=C(c1ccc(Br)cc1)C12CN3CN(CN(C3)C1)C2	-16	6
O=C(NC1CN2CCC1CC2)c1cccc(Cl)c1 (centres undefined)	-9	-8

(listing goes on)
Compound	OX1R antag-1	OX1R antag-2
Brc1ccccc1	0	5
CCCCCn1c(=O)c(C(=O)Nc2nc3ccccc3[nH]2)c(O)c2ccccc21	-37	3
O=C1C2CCCN2C(c2ccc(Cl)c(Cl)c2)N1c1ccccn1 (centres undefined)	-14	21
Cc1ccsc1CNCCc1ccccc1F	-26	-1
Cn1c(O)c(C=NCCN2CCOCC2)c(=O)n(C)c1=S	-4	20
C=CCn1c(O)c(C(C)=Nc2ccc(C(=O)OCC)cc2)c(=O)[nH]c1=O	-7	9
Clc1ccc(N2CCNCC2)nn1	-8	8
COc1cc2c(cc1O)CC1c3c(cc(O)c(OC)c3-2)CCN1C (centres undefined)	-2	22
O=C(O)C1C2c3ccccc3C(c3ccccc32)C1C(=O)Nc1ccccc1 (centres undefined)	-2	9
COc1ccc(-n2c(O)c(C(C)=Nc3ccc4c(c3)CCC4)c(=O)[nH]c2=O)cc1	-10	0
CC(C)Oc1ccc(CC2(CCc3ccncc3)C(=O)NC(=O)NC2=O)cc1	-19	10
CCN(CC)CCCN=C(C)c1c(O)n(C2CCCCC2)c(=O)[nH]c1=O	-4	5

New compounds follow
Compound	OX1R antag-1	OX1R antag-2
COCCNC(=O)CN1C(=O)C(C)N=C(c2ccccc2)c2cc(Cl)ccc21 (centres undefined)	-25	-8
CC(=O)c1ccc(-c2ccccc2)cc1	-6	10
COc1ccc(N=C(C)c2c(O)n(C3CCCCC3)c(=O)[nH]c2=O)c(OC)c1	-6	9
Cc1cc(N2C(=O)CC(N3CCC(n4c(=O)[nH]c5ccccc54)CC3)C2=O)no1 (centres undefined)	4	30
CCCC(=O)NC(Oc1ccc(Cl)cc1Cl)C(Cl)(Cl)Cl (centres undefined)	-5	0
CC(=O)OC1(c2ccccc2)CCN(C2CCCCC2)CC1C (centres undefined)	-36	-9
Cc1c(C(=O)N2CCC3(CC2)OCCO3)oc2ccc(S(=O)(=O)N3CCOCC3)cc12	-5	2
CC(=O)N1CC(=O)Nc2ccc(F)cc2C1c1ccccc1 (centres undefined)	-14	5
C=CCn1c(O)c(C(C)=NCCc2c[nH]c3ccccc23)c(=O)[nH]c1=O	-18	-3

Source: PubChem BioAssay (The Scripps Research Institute Molecular Screening Center)

These rows are one share of the data; most or all hits stand in other tables.
